Screens: PubChem, several laboratories
MT1-MMP act inh = inhibitors of human MT1-MMP activation | HT1080 RFP-PRO-GFP cells, GFP/RFP ratio fluorescence, overnight; percent of plate control window, DMSO zero | 0.061% of 360,000 active | P50281 | GFP/RFP ratio change, % at 20 µM;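 active = GFP/RFP ratio change of at least 30% with cell ATP level not reduced by more than half and red fluorescence within 50% of control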; also: strong numbers were not always called active
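Assay system: HT1080 cells carrying an RFP-PRO-GFP reporter | Dosing: Single dose of 20 µM compound, 1% DMSO final | Incubation: Cells overnight before dosing, compound overnight, 37 °C, 5% CO2 | Evaluation: GFP/RFP fluorescence ratio | Control set: DMSO and RFP-L50D-GFP cell wells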
CSC inhib = blocks cancer stem cells. inhibition, % at 7.5 µM. cancer stem cell-like cells viability, luminescence. 1.1% of 300,000 active. AID 2717;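 active = mean at 75% or more and at least half the replicates too; tested in HMLE shEcad cells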;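 also: 0% = median of negative and 100% = median of positive control wells; the first replicate is given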
Yeast UUG start = alters start codon recognition fidelity in yeast | S. cerevisiae UUG-firefly luciferase reporter, luminescence/redox ratio | activity score, % at 18.7 µM | 0.13% of 350,000 active | AID 602363;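 active = replicate mean at a twofold rise or more, about +100% in these data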;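 also: firefly luciferase made from a UUG start codon reports start codon fidelity; reporter light over untreated wells divided by growth signal over untreated wells; some hits fall short of that in this replicate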
Rce1 inhib = yeast Ras-converting enzyme inhibition; Q03530; yeast membranes, quenched prenylated peptide cleavage fluorescence; calls only; 0.27% of 290,000 active; AID 2563;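 active = fall in fluorescence gain of 50% or more versus controls, with final raw signal at or below 3038400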;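 also: plate controls were neutral control wells for no effect and wells lacking membranes for full effect; tested at 10 µM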
HIV Env fusion = inhibitors of HIV Env-mediated cell fusion; HeLa-JRFL Env/CEM21 cell fusion, luciferase; inhibition, % at 12.3 µM; 1.1% of 360,000 active; AID 651610;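 active = mean replicate inhibition score of at least 50 and every replicate individually at or above 50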;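 also: 0% = plate neutral controls and 100% = maraviroc near 300 nM; one replicate is shown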
eIF4H FP inh = inhibitors of RNA binding by human eIF4H; inhibition, % at 35 µM; eIF4H fluorescence polarization binding assay; AID 2012; 0.94% of 290,000 active;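 active = 50% or more with normal probe brightness, or confirmed in later tests; about a fifth of its hits are not listed in these tables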;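 also: calls also rest on retests at 20 µM and on dose response follow-up; 0% = protein and probe with vehicle and 100% = probe without protein; strong numbers were not always called active; many hits fall short of the cut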
PABP polyA inh = PABP-poly(A) binding inhibition | PABP-poly(A) RNA binding, fluorescence polarization | AID 2014 | inhibition, % at 35 µM | 1% of 290,000 active | P11940;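 active = 50% or more with normal probe brightness, or confirmed in later tests; about a fifth of its hits are not listed in these tables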;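 also: calls also rest on retests at 20 µM and on dose response follow-up; controls were probe without protein and protein plus probe with vehicle; some compounds called inactive have numbers as strong as hits; many hits fall short of the cut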
Target sequence (P11940 whole entry, looked up): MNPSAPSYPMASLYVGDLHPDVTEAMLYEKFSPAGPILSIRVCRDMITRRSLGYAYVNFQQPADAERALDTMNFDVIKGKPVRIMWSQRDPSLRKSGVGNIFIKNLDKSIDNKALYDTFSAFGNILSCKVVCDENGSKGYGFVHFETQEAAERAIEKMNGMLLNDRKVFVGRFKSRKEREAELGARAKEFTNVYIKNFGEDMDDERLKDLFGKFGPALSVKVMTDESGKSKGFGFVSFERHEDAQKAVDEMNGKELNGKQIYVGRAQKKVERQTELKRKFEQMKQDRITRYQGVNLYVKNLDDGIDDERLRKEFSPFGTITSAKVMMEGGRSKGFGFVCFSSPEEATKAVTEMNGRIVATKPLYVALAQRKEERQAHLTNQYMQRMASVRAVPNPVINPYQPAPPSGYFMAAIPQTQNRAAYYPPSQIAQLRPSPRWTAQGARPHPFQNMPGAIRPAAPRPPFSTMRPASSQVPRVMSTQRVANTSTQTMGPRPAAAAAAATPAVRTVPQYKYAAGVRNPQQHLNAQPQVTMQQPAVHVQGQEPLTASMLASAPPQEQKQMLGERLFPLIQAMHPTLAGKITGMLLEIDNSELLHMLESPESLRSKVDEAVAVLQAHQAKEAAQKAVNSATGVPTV
eIF4H FP inh retest = second read-out of eIF4H FP inh, no call of its own (marks repeat the call); inhibition, %; compound at 20 µM; confirmation average;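 mean of two retest wells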
PABP polyA inh retest = recorded beside PABP polyA inh, whose call it bears; inhibition, %; compound at 20 µM; confirmation repeats;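 mean of two retest wells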
MT1-MMP act inh RFP = recorded beside MT1-MMP act inh, whose call it bears; RFP signal change, %; measured here: RFP expression control read;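 0 = vehicle wells; hits needed this value within 50% of zero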
* marks the source's active call; other numbers are inactive results; i = inactive; nt = not tested or not shown; & = joins results of further samples. The order is random, and some 2.9% of all compounds hit somewhere here.

SMILES | MT1-MMP act inh | MT1-MMP act inh RFP | CSC inhib | Yeast UUG start | Rce1 inhib | HIV Env fusion | eIF4H FP inh | PABP polyA inh | others
Cc1cc(N2CCN(c3nnnn3-c3ccccc3)CC2)n2ncnc2n1 | 1 | 1 | -6 | -17 | i | nt | 3 | -6
COc1ccc(S(=O)(=O)N2CCC(C(=O)Nc3ccc4c(c3)OCCO4)CC2)cc1OC | 9 | 3 | 2 | -4 | i | 34 | -1 | 54 | eIF4H FP inh retest=0;PABP polyA inh retest=6
COc1cc2c(c3oc(-c4ccccc4)cc(=O)c13)C=CC(C)(C)O2 | 2 | -14 | 32 | -17 | i | nt | 2 | 9
CCOC(=O)N1CCN(C(=O)c2cc3ccccc3o2)CC1 | 0 | 0 | -11 | -8 | i | -3 | 0 | 3
COc1nnc(-c2ccc(N3CCOCC3)c(NC(=O)c3ccc(C)cc3)c2)c2ccccc12 | -1 | 1 | 11 | 8 | i | -2 | -5 | -6
CCN(CC(=O)Nc1c(F)cccc1F)C(=O)C1CCN(S(=O)(=O)c2ccc(C)cc2C)CC1 | 1 | 1 | 12 | 3 | i | -3 | nt | nt
O=C(Nc1ccccc1-c1ccccc1)C1CCCCC1 | 4 | 4 | 3 | nt | i | -11 | -5 | -4
CC(OC(=O)/C(C#N)=C/c1ccc(N(C)C)cc1)C(=O)NCc1ccco1 (stereo unspecified) | -21 | 2 | -2 | -14 | nt | 0 | nt | nt
CNC(=O)NNC(=O)c1csc(-c2ccc(C(F)(F)F)cc2Cl)n1 | -1 | -4 | -8 | -11 | i | 9 | -4 | 3
COc1cccc(CC(=O)NNC(=O)c2c(-c3ccccc3)noc2C)c1 | 1 | -3 | 2 | -27 | i | 10 | -13 | -6
CCN(CC)S(=O)(=O)c1ccc(N2CCCC2)c(NC(=O)c2ccncc2)c1 | 3 | 2 | -1 | -6 | i | -35 | -1 | 7
CCOC(=O)C1=C(COC(=O)CSc2ccc(C)cc2C)NC(=O)NC1C (stereo unspecified) | 5 | 5 | nt | 6 | nt | -1 | nt | nt
CC1(C(=O)NS(=O)(=O)Cc2ccccc2)CCN1C(=O)CCc1ccccc1 (stereo unspecified) | -1 | -15 | nt | 1 | nt | -21 | nt | nt
CC(C)Oc1ccc(C(=O)Nc2ccc(N(C)C)cc2)cc1 | 0 | -3 | 35 | nt | i | nt | 4 | -1
CC(=O)c1ccc(-n2c(C)ccc2-c2ccccc2)cc1 | -3 | -3 | -4 | -5 | i | -8 | 2 | -7
O=C(NCc1ccccn1)Nc1ccccc1Cl | -3 | 2 | 0 | -13 | i | -15 | -10 | 0
O=C(Cc1ccc(S(=O)(=O)N2CCOCC2)s1)Nc1ccc(N2CCOCC2)cc1 | 1 | 3 | -11 | nt | i | -10 | 2 | 3
COC(=O)c1cc(S(=O)(=O)NCCc2ccc(Cl)cc2)c[nH]1 | -4 | -6 | -16 | -11 | i | 47 | -6 | -13
Cc1ccccc1OCC(=O)NCC(c1cccs1)N1CCOCC1 (stereo unspecified) | 4 | -7 | -1 | -21 | i | -7 | nt | nt
CCOC(=O)c1nn(-c2cccc(Cl)c2)c2nc(Nc3ccccc3)cc(=O)n12 | 2 | 0 | -3 | -10 | i | -31 | 0 | 0
CN1CCN(C(=O)/C=C\C(=O)O)CC1 | 6 | 1 | -7 | nt | i | nt | -2 | -15
CCC(=O)N1CCc2cc(S(=O)(=O)NC(Cc3ccccc3)C(=O)Nc3nccs3)ccc21 (stereo unspecified) | 6 | 4 | -9 | -13 | i | -27 | 10 | -6
COC(=O)c1cc(S(=O)(=O)Nc2cccc(-c3cnco3)c2)oc1C | 2 | 0 | 6 | -8 | i | nt | -2 | 3
CC[C@@]12C(=O)N(c3cccc(F)c3)C(=O)N1[C@H](c1ccc(OC)cc1)[C@@H]1C(=O)N(C(C)(C)C)C(=O)[C@@H]12 | 3 | 0 | -3 | 2 | i | -25 | nt | nt
C/C(=C\c1ccccc1)CN1CCC(C(=O)N2CCC(C)CC2)CC1 | 0 | -4 | -13 | -11 | i | 5 | 0 | -6

No new results follow: an excerpt of the list.
SMILES | MT1-MMP act inh | MT1-MMP act inh RFP | CSC inhib | Yeast UUG start | Rce1 inhib | HIV Env fusion | eIF4H FP inh | PABP polyA inh | others
COC(=O)c1cc(S(=O)(=O)Nc2cccc(-c3cnco3)c2)oc1C | 2 | 0 | 6 | -8 | i | nt | -2 | 3
CC[C@@]12C(=O)N(c3cccc(F)c3)C(=O)N1[C@H](c1ccc(OC)cc1)[C@@H]1C(=O)N(C(C)(C)C)C(=O)[C@@H]12 | 3 | 0 | -3 | 2 | i | -25 | nt | nt
C/C(=C\c1ccccc1)CN1CCC(C(=O)N2CCC(C)CC2)CC1 | 0 | -4 | -13 | -11 | i | 5 | 0 | -6

Additional records.
SMILES | MT1-MMP act inh | MT1-MMP act inh RFP | CSC inhib | Yeast UUG start | Rce1 inhib | HIV Env fusion | eIF4H FP inh | PABP polyA inh | others
CCOC(=O)N(C)c1c(CC)nc2c(OCC(=O)C(C)(C)C)cccn12 | 7 | -2 | nt | -18 | nt | -9 | nt | nt
Cc1cc(SCC(=O)c2ccccc2)nc(=O)[nH]1 | 0 | 5 | 1 | -27 | i | -11 | nt | nt
CC(C)c1ccc(NC(=O)Nc2nc(C(N)c3ccccc3)cs2)cc1 (stereo unspecified) | -2 | 0 | nt | -15 | nt | 27 | nt | nt
Cc1cc(Cl)ccc1OCCCC(=O)N1CCN(S(=O)(=O)c2ccccc2)CC1 | -1 | -2 | -3 | nt | i | -28 | nt | nt
CCc1cc2c(-c3ccccc3)cc(=O)oc2cc1OC(=O)c1cccs1 | -5 | -3 | 2 | nt | i | -42 | 14 | 18
CC1(C)OC(C)(C)/C(=C\c2ccccc2[N+](=O)[O-])C1=O | -6 | -5 | 1 | -15 | i | 17 | -9 | -11
CCC(C)c1ccccc1NC(=O)COC(=O)C1=COCCO1 (stereo unspecified) | 1 | 4 | -2 | nt | i | -24 | 6 | 31
CC(=O)c1ccc(S(=O)(=O)N2CCN(CC(=O)Nc3ccc(Cl)c([N+](=O)[O-])c3)CC2)cc1 | 10 | -5 | -6 | -5 | nt | nt | nt | nt
Cc1ccc2cc(C#N)c(N3CCCN(S(=O)(=O)c4ccc(F)cc4)CC3)nc2c1 | -17 | 2 | -5 | -1 | i | nt | 4 | -6
CN(C(=O)CSc1nc(-c2ccccc2)cs1)C1CCS(=O)(=O)C1 (stereo unspecified) | -2 | 1 | 5 | -7 | i | nt | 8 | -3
c1ccc(Cc2nnc3sc(-c4ccc5c(c4)OCO5)nn23)cc1 | 3 | 1 | -10 | -3 | i | -16 | nt | nt
Cc1ccc(NC(=O)CSc2n[nH]c(-c3cccnc3)n2)cc1Cl | 0 | -3 | -4 | -17 | i | 5 | 4 | -3
CCN(CC(=O)Nc1ccc(NC(C)=O)cc1)C(=O)CSc1nnc(-c2ccco2)n1CC | 0 | 1 | nt | -18 | i | -2 | nt | nt
Cc1ccc(NC(=O)C2CCN(C(=O)[C@@H]3Cc4ccccc4CN3)CC2)cc1 | 2 | 4 | -27 | -19 | i | -30 | -7 | 0
Cc1nc2c3ccccc3[nH]c(=O)n2n1 | -1 | 0 | -4 | -18 | i | -33 | 6 | 4
COc1ccccc1C1=CC(=O)C[C@H](c2ccc(Cl)cc2)C1 | 4 | -3 | 18 | -13 | nt | 25 | nt | nt
COc1ccccc1N(CC(=O)NCCSc1ccccn1)S(=O)(=O)c1ccccc1 | -1 | -1 | -11 | -6 | i | 10 | 2 | -1
COc1ccc(N2CCN(C(=S)Nc3cc(C)ccc3C)CC2)cc1 | 2 | 1 | nt | -18 | i | nt | -5 | 1
COc1ccccc1NC(=O)c1ccc2c(c1)N(CC(=O)NC(C)(C)C)C(=O)C(C)(C)O2 | -1 | 2 | 3 | 4 | nt | -3 | 2 | 4
O=c1[nH]c(CSc2nnc(Nc3ccccc3)s2)nc2ccccc12 | 0 | 2 | -9 | -10 | i | 13 | -1 | -3
CC1CCCCC1NC(=O)CN1CCC(O)(c2ccc3c(c2)OCO3)CC1 (stereo unspecified) | -2 | 0 | -5 | nt | nt | 7 | 5 | 4
Cn1ccc(-c2ccccc2)n1 | 3 | 6 | -15 | -10 | i | -6 | -6 | -11
CN(C(=O)CSc1nnc(-c2cccs2)n1N)c1ccccc1 | 1 | 2 | -22 | -15 | nt | nt | nt | nt
CCOc1ccc(CCNC(=O)CN2C(=O)CCSc3ccccc32)cc1 | 3 | 1 | -20 | -6 | i | 8 | -7 | -9
O=C(COC(=O)C12CC3CC(CC(C3)C1)C2)Nc1ccc(OC(F)F)cc1 | 5 | 5 | -1 | -9 | i | 12 | -7 | 2
More results
SMILES | MT1-MMP act inh | MT1-MMP act inh RFP | CSC inhib | Yeast UUG start | Rce1 inhib | HIV Env fusion | eIF4H FP inh | PABP polyA inh | others
COc1ccc(OC)c(C2=CC(=O)C[C@H](c3ccc4c(c3)OCO4)C2)c1 | -1 | -11 | 44 | -17 | nt | 2 | nt | nt
CCc1cccc2cc3c(N)c(C(=O)Nc4ccc(S(=O)(=O)N5CCCC5)cc4)sc3nc12 | -189 | -4 | 19 | -11 | i | 17 | 5 | 2
Cc1cc(O)cc2c1O[C@@](C)(CCC[C@@H](C)CCC[C@@H](C)CCCC(C)C)CC2 | 8 | 5 | 5 | -15 | nt | 0 | nt | nt
CC(CC(=O)Nc1cc(S(=O)(=O)N2CCOCC2)ccc1OCC(F)(F)F)c1ccccc1 (stereo unspecified) | -2 | 1 | nt | -3 | nt | 3 | nt | nt
O=C(COc1ccccc1)NCCSCc1ccco1 | -16 | -5 | -3 | -1 | i | nt | 3 | 16
Fc1ccc(-n2c(-c3ccc4ccccc4n3)n[nH]c2=S)cc1 | 4 | 6 | -12 | nt | i | -1 | -15 | -4
COc1cc(-c2nnc(COC(=O)c3ccc([N+](=O)[O-])o3)o2)cc(OC)c1OC | 1 | 3 | nt | 1 | nt | -11 | nt | nt
Cn1c(=O)[nH]c(=O)c2c1nc(Br)n2CCOc1ccccc1 | 2 | 0 | 11 | -18 | i | -79 | 3 | 3
CCOC(=O)N1CCC(NC(=O)c2cc(-c3ccc(OC)cc3)nc3ccccc23)CC1 | 4 | 2 | -14 | -2 | i | -11 | -1 | 1
CSCCC(NC(=O)c1ccccc1)C(=O)NCCCSc1ccccc1 (stereo unspecified) | -1 | -3 | 5 | 4 | nt | 18 | nt | nt
CC1(C)CC(=O)c2cnc(NCc3ccco3)nc2C1 | 6 | 1 | -5 | -22 | nt | nt | -2 | -1
CCCCNc1c(-c2ccc(OC)c(SC3CCCCC3)c2)nc2ccc(C)cn12 | 15&22 | -10&-23 | nt | -8 | nt | 5&7 | nt | nt
CCN1CCN(c2ccc(S(=O)(=O)N3CCOCC3)cc2NC(=O)CCOc2ccccc2)CC1 | 1 | 2 | -4 | -10 | i | nt | -17 | -2
O=C(NCC(c1cccnc1)N1CCN(c2ccccc2)CC1)c1ccc2c(c1)OCO2 (stereo unspecified) | 9 | -4 | 20 | -16 | i | nt | 4 | 5
COC(=O)c1c(NC(=O)COC(=O)c2ccc(C)s2)sc2c1CCCCC2 | -1 | -4 | 20 | -23 | i | 8 | -6 | 0
CCC(c1nc2ccccc2c(=O)n1-c1cccnc1)N1C(=O)c2ccccc2C1=O (stereo unspecified) | 0 | 2 | -9 | -7 | i | nt | -8 | -2
CCC(CC)NC(=O)c1nn(Cc2ccccc2)c(=O)c2ccccc12 | 0 | -2 | -4 | 0 | i | -1 | 2 | 2
Cc1cc(C)c2cccc(NC(=S)NC(=O)c3ccccc3)c2n1 | 0 | 6 | nt | -24 | i | -24 | -4 | 0
Cc1cc(NC(=O)COc2cccc3cccnc23)no1 | nt | nt | nt | nt | i | -11 | 18 | -1
O=S(=O)(c1ccc2c(c1)CCCN2)N1CCCC2CCCCC21 (stereo unspecified) | 5 | -11 | 17 | -20 | i | 11 | 3 | 0
